RGS16-Gao: modulators of RGS16 binding to Galphao, primary screen, biochemical, human proteins, multiplexed bead flow cytometry; Regulator of G-protein signaling 16 (Homo sapiens) + Guanine nucleotide-binding protein …; bead-based flow cytometry RGS16-Galphao binding, fluorescence; actives lie on both sides; binding response (% of control), % at 10 µM; hit rate 0.38% among 220,000; AID 1441, 2008;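 active means below 25% or above 175%, edge rows of some plates excepted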;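 further: Galphao activated by GDP with aluminum fluoride before binding; 100% = wells without compound and 0% = beads without RGS; some results beyond the cut were filed as inactive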
Target sequence (O15492 whole entry, looked up): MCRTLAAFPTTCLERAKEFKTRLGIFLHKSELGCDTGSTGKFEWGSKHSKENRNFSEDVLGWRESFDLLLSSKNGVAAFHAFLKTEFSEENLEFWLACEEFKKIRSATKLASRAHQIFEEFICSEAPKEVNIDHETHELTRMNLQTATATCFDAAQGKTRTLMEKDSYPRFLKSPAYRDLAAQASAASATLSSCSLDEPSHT
Target sequence (P09471 whole entry, looked up): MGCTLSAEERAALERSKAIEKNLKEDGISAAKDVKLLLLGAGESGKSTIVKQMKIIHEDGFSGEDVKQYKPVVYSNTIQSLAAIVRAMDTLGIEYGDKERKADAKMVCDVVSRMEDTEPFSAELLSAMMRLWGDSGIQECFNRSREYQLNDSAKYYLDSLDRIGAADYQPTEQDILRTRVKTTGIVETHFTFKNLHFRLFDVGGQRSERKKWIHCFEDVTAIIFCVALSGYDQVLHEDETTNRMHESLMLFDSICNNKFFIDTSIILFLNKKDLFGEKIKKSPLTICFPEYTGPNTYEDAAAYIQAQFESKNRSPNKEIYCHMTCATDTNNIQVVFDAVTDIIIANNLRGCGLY
HSV augment: enhancers of HSV replication in host cells, fold increase, host cell viability; maximum fold increase; HSV replication augmentation in cells; AID 1956, 2009; hit rate 0.005% among 220,000;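 active means peak rise of 1.5-fold or more in the series; tested in PC3 cells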;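 further: first round at 10 µM; read as green reporter fluorescence; hits show the peak of a series up to 25 µM; 1 = signal of infected wells without compound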
Insulin prom inh: inhibitors of insulin promoter-driven GFP, primary screen, imaging, TRM-6 cells (human fetal islet line), eGFP reporter, cell count | reporter expression induced with tamoxifen | inhibition, % at 2 µM | hit rate 0.9% among 130,000;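 active means inhibition above the mean plus 3 SD, with well images judged a real hit on visual review, cut at about 60% in these data, passing the limit was not always enough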
PKD1 kinase inh: inhibitors of human PKD1 kinase, biochemical, fluorescence polarization; Serine/threonine-protein kinase D1 (Homo sapiens), Q15139; PKD1 kinase fluorescence polarization assay; inhibition, %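 (about 10 µM by stock and volumes)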; hit rate 0.056% among 200,000; AID 797, 2007;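 active means inhibition of 50% or more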;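 further: controls were vehicle for no effect and a reference inhibitor for full effect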
GALR2 ag: GALR2 receptor agonists, primary screen, cell-based. Galanin receptor type 2 (Homo sapiens), O43603. GALR2-expressing cells, agonist activation read-out. activation, %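 (tested at 5 µM)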. hit rate 0.48% among 140,000. AID 803, 2007;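 active means above mean plus 3 SD of all compounds, about 5% in these data, not always enough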;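 further: 0% = vehicle buffer wells and 100% = reference agonist at full effect; tested in CHO reporter cells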
Target sequence (O43603 whole entry, looked up): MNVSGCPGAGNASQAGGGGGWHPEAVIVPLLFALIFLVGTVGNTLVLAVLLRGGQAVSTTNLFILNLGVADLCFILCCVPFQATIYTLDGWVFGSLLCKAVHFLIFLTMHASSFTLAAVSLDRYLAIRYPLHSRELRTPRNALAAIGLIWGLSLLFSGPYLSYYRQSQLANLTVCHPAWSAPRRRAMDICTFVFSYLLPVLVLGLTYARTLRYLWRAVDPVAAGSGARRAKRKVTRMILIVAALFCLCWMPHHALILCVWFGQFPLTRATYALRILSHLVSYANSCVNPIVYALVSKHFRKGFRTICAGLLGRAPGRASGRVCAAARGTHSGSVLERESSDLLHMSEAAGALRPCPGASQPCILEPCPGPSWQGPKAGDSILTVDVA
Insulin prom inh cell count: recorded beside Insulin prom inh, whose call it bears; normalized cell count, %; measured here: cell count, toxicity; reference of the scale not given here;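 cells exposed to compound for 48 h; stained nuclei by imaging scaled within each plate; lower means fewer cells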
HSV augment primary fold: recorded beside HSV augment, whose call it bears; fold increase; compound at 10 µM; measured here: primary screen fold increase 10 uM; tested in PC3 cells;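 GFP signal in the first replicate; 1 = infected wells without compound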
The depositor's hits bear a star; i = inactive; · = not tested or not shown.

A first look, two compounds:
Values run as follows: GALR2 ag, Insulin prom inh cell count, RGS16-Gao, HSV augment, Insulin prom inh, HSV augment primary fold, PKD1 kinase inh
CC1=C(C(=O)OC(C)C)C(c2cccc(F)c2)N2C(=O)C(C)SC2=N1 (configuration not stated)
→ -2.6, 53, ·, i, 43, 0.98, -6
O=C(N/N=C/c1ccco1)c1cc(-c2ccc3ccccc3c2)n[nH]1
→ -2.8, ·, 54, ·, ·, ·, 5

Results, from the first entry:
Values run as follows: GALR2 ag, Insulin prom inh cell count, RGS16-Gao, HSV augment, Insulin prom inh, HSV augment primary fold, PKD1 kinase inh
CC1=C(C(=O)OC(C)C)C(c2cccc(F)c2)N2C(=O)C(C)SC2=N1 (configuration not stated)
→ -2.6, 53, ·, i, 43, 0.98, -6
O=C(N/N=C/c1ccco1)c1cc(-c2ccc3ccccc3c2)n[nH]1
→ -2.8, ·, 54, ·, ·, ·, 5
COc1ccc(C(=O)N2CCN(C(=O)Cc3ccccc3)CC2)cc1
→ ·, ·, 101, i, ·, 0.96, 6
CCOC(=O)C1CCCN(C(=O)c2ccc(OC(C)=O)cc2)C1 (configuration not stated)
→ -0.3, ·, 101, i, ·, 1.1, 2
Cc1cc[n+](-c2nc3ccccc3nc2[N-]S(=O)(=O)c2cccs2)cc1C
→ -1.0, 129, 101, i, 10, 1.1, -3
O=C(Nc1ccc(Br)cn1)C1CCCN1S(=O)(=O)c1ccccc1 (configuration not stated)
→ 0.7, 90, 98, i, -21, 1, 1
CCCCOc1ccccc1NC(=O)c1scc2c1OCCO2
→ ·, 110, 102, i, -75, 0.86, 1
Cn1cc(S(=O)(=O)N2CCc3ccccc3C2)c(=O)n(C)c1=O
→ -4.5, ·, 109, i, ·, 0.97, -4
O=C(CNS(=O)(=O)c1c(Cl)cccc1Cl)OCc1csc(-c2ccccc2)n1
→ -1.7, 108, 104, i, -10, 0.92, -1
CC(C(=O)N1CCOCC1)N1C(=O)C2C3C=CC(C4CC34)C2C1=O (configuration not stated)
→ ·, ·, 98, i, ·, 0.9, -12
COCCCNC(=O)CCCCCNS(=O)(=O)c1ccc(Br)cc1
→ ·, ·, 104, i, ·, 0.95, -14
CCN(CC)S(=O)(=O)c1cc(C(=O)Nc2nncs2)c(Cl)cc1Cl
→ -0.1, 43, 57, i, -16, 1, -2
O=C(Nc1nc(-c2ccccc2Cl)cs1)c1cccnc1
→ 0.9, 133, 98, i, 0, 1, -2
O=C1NCCCC1C(=O)Nc1cccc(C(F)(F)F)c1 (configuration not stated)
→ -1.3, 157, 98, i, 0, 0.75, -8
Nc1nc(Cl)nc(N(c2ccccc2)c2ccccc2)n1
→ 0.3, 144, 102, i, -7, 1.2, -4
O=C(Nc1ccccc1C(=O)NCC1CCCO1)c1ccco1 (configuration not stated)
→ -0.3, 92, 121, i, -59, 1.1, -1
CCOC(=O)N1CCN(C(=O)c2ccc(NC(=O)CC)cc2)CC1
→ -0.8, 133, 84, i, 46, 0.85, 2
C/C(=N\Nc1ccccn1)c1ccc(N2CCOCC2)cc1
→ ·, 34, 103, i, -25, 0.97, -9
CCOc1c(Cl)cc(Cl)cc1CNCCNCCO
→ -3.6, ·, 98, i, ·, 1, 3
CC1=CC(=C(C#N)C#N)C=C(C)N1Cc1ccc(Cl)cc1
→ ·, ·, 96, i, ·, 1.1, -4
O=C(NNC(=S)Nc1ccc(Br)cc1Cl)c1ccncc1
→ -1.1, 105, 110, i, 32, 1, 2
Cc1ccc(/C=N/NC(=O)Cc2cccn2C)s1
→ -0.7, 168, 96, i, -33, 0.77, 3
COC(=O)C1=CN(C)C=C(C(=O)OC)C1c1ccc(O)c(OC)c1
→ -0.2, ·, 142, i, ·, 0.83, 14
CCOC(=O)c1cn[nH]c1N
→ -2.1, ·, 103, i, ·, 1.1, 0
CCOc1ccc2nc(NC(=O)c3cnc(C)cn3)sc2c1
→ -0.8, 157, 91, i, 20, 0.93, -4
COC(=O)c1ccccc1NC(=O)c1cc([N+](=O)[O-])nn1Cc1ccccc1
→ 0.2, ·, 106, i, ·, 0.92, 3
CC(=O)NC1C(=O)N=C(SCC(=O)NC2CCCCC2)NC1=O (configuration not stated)
→ -1.4, 96, 102, i, 33, 1.1, -7
COc1cc(/C=C(\C#N)c2ccccn2)ccc1OCC(=O)Nc1ccc(Br)cc1
→ -1.1, 130, 97, i, -7, 0.85, -14
CCOC(=O)CNC(=O)c1ccc2[nH]c3ccccc3c2c1
→ ·, ·, 100, i, ·, 0.83, 5
Cc1cccc(C)c1NC(=S)N(CCCN1CCCCC1)Cc1ccco1
→ ·, 100, 100, i, 33, 0.98, -2
O=C(NC1CCCCC1)C(c1ccccc1)N1CCc2ccccc21 (configuration not stated)
→ -2.6, ·, 100, i, ·, 0.72, -16
O=C1c2ccccc2C(=O)N1CCCCN(C(=O)c1ccco1)c1ccc(Cl)cc1
→ -0.9, 107, 100, i, -93, 0.95, 3
COC(=O)CCC(=O)OC1(C)C(=O)C2=CN(C(CO)CO)C(c3ccc(OC)cc3)=CC2=C(Br)C1=O (configuration not stated)
→ ·, ·, 98, i, ·, 0.87, ·
COc1ccc(OC)c(NC(=O)CSCC(=O)O)c1
→ -1.8, 100, 100, i, 4, 0.86, -6
COc1ccc(C(=O)NNC(=O)c2ccc(S(=O)(=O)N3CC(C)OC(C)C3)cc2)cc1 (configuration not stated)
→ ·, 57, 98, i, 0, 0.96, 5
COC(=O)C(C)Sc1ccc2nnc(-c3ccccc3)n2n1 (configuration not stated)
→ ·, 88, 103, i, 6, 0.86, -3
O=C(O)c1nccnc1C(=O)Nc1ccccc1-c1ccccc1
→ ·, ·, 110, i, ·, 0.87, ·
COc1cc([N+](=O)[O-])ccc1-c1ccc(/C=N/NC(=O)c2ccccc2O)o1
→ ·, ·, 106, i, ·, 1.1, ·
CCc1cccc(C)c1NC(=S)NCc1ccc2c(c1)cc(C)n2C
→ -1.1, 121, 105, i, 37, 1, -1
CN(CC(O)COc1ccc(OCC(O)CN(C)C2CCCCC2)cc1)C1CCCCC1 (configuration not stated)
→ -1.3, 201, 101, i, -3, 0.77, -2

2 of the compounds above, with each value named:
mol: COc1ccc(C(=O)NNC(=O)c2ccc(S(=O)(=O)N3CC(C)OC(C)C3)cc2)cc1 (configuration not stated)
- GALR2 ag: ·
- Insulin prom inh cell count: 57
- RGS16-Gao: 98
- HSV augment: i
- Insulin prom inh: 0
- HSV augment primary fold: 0.96
- PKD1 kinase inh: 5

mol: COC(=O)C(C)Sc1ccc2nnc(-c3ccccc3)n2n1 (configuration not stated)
- GALR2 ag: ·
- Insulin prom inh cell count: 88
- RGS16-Gao: 103
- HSV augment: i
- Insulin prom inh: 6
- HSV augment primary fold: 0.86
- PKD1 kinase inh: -3

(continued)
Values run as follows: GALR2 ag, Insulin prom inh cell count, RGS16-Gao, HSV augment, Insulin prom inh, HSV augment primary fold, PKD1 kinase inh
CCCc1cc2c(-c3ccccc3)cc(=O)oc2cc1OCc1ccc(C(=O)O)o1
→ ·, 112, 102, i, 6, 1.1, 7
CCOC(=O)C1CCCN(Cc2ccc(OC)cc2OC)C1 (configuration not stated)
→ -0.3, ·, 108, i, ·, 0.94, 1
CN(C)CCCn1c(N)c(S(=O)(=O)c2ccccc2)c2nc3ccccc3nc21
→ ·, ·, 116, i, ·, 1, ·
CCC(Sc1nc2cc(OC)c(OC)cc2c(=O)n1Cc1ccco1)C(=O)NCCOC (configuration not stated)
→ 1.0, 71, 106, i, 16, 0.77, -9
O=S(=O)(Nc1nc2ccccc2s1)c1cnc(Cl)c(Br)c1
→ ·, ·, 109, i, ·, 0.92, ·
O=C(NCc1ccccc1Cl)NC(=O)c1ccccc1
→ ·, ·, 100, i, ·, 0.85, -9
Cc1c(/C=C/C(=O)c2ccccc2O)cnn1C
→ -1.2, 89, 43, i, 8, 0.9, -2
CCCCn1nc(C(=O)Nc2ccc(S(=O)(=O)Nc3ncccn3)cc2)c2ccccc2c1=O
→ ·, ·, 98, i, ·, 0.92, 2
CCc1c(C)sc(NC(=O)c2cccs2)c1C(N)=O
→ -2.6, 119, 54, i, -20, 1.1, -10
O=C(Nc1ccccc1)Nc1ccc2snnc2c1
→ -1.3, 79, 102, i, -150, 0.96, -7
Cc1cccc(N2C(=O)SC(N(C)c3ccccc3)C2=O)c1 (configuration not stated)
→ -2.6, ·, 100, i, ·, 1.1, -2
C=CCc1cccc(OC)c1OCCOCCn1ccnc1
→ 1.7, 105, 104, i, 28, 0.98, 4
CCN1CCc2c(C#N)c(N3CCCCC3)nc(N3CCOCC3)c2C1
→ 1.6, 106, 101, i, -114, 0.99, 1
CCN(CC)c1ccc(/C=c2/sc3nnc(-c4ccccc4C)n3c2=O)cc1
→ -1.9, 167, 131, i, 7, 0.79, 15
c1ccc(CN2CCN(Cc3nnc(-c4ccccc4)o3)CC2)cc1
→ ·, ·, 100, i, ·, 1, 3
COc1ccc(NC(=O)Nc2ccccc2C(N)=O)cc1
→ ·, ·, 102, i, ·, 0.82, -8
COC(=O)C(C)n1nc(C)n(-c2ccc(C)cc2)c1=O (configuration not stated)
→ -1.0, 109, 96, i, 23, 0.77, 0
Nc1nnc(-c2ccncc2)s1
→ -2.4, 113, 101, i, 64, 0.87, -5
CCOC(=O)N1CCN(C(=O)CN(C)S(=O)(=O)c2ccc3c(c2)C(C)(C)C(=O)N3C)CC1
→ 0.8, 100, 107, ·, 0, ·, -7
Cc1cccc(NC(=O)c2cc([N+](=O)[O-])ccc2Cl)c1O
→ ·, 94, 108, i, -14, 0.76, -3

Looked up above:
RGS16-Gao, `CCCCn1nc(C(=O)Nc2ccc(S(=O)(=O)Nc3ncccn3)cc2)c2ccccc2c1=O` reads 98
RGS16-Gao, `O=C(Nc1ccccc1)Nc1ccc2snnc2c1` reads 102
HSV augment primary fold, `COc1ccc(NC(=O)Nc2ccccc2C(N)=O)cc1` reads 0.82
Insulin prom inh, `CCC(Sc1nc2cc(OC)c(OC)cc2c(=O)n1Cc1ccco1)C(=O)NCCOC` (configuration not stated) reads 16
Insulin prom inh, `CCc1c(C)sc(NC(=O)c2cccs2)c1C(N)=O` reads -20

(listing goes on)
Values run as follows: GALR2 ag, Insulin prom inh cell count, RGS16-Gao, HSV augment, Insulin prom inh, HSV augment primary fold, PKD1 kinase inh
COc1ccc(CN2C(=O)c3ccccc3C(/C=N/OCc3ccc(Cl)cc3)C2=O)cc1 (configuration not stated)
→ -2.0, 112, 98, i, 32, 1, -8
O=C1Nc2ccccc2N(O)N1c1cc(-c2cccc(Cl)c2)no1
→ -3.8, 98, 104, i, 41, 0.83, -5
CCCCC(=O)N(c1ccc(C(=O)O)cc1)c1nc(-c2ccc(Cl)cc2)c(CC)s1
→ ·, 166, 106, i, -60, 0.85, 2
Cc1ccc2c(c1)C(=O)CC1(CCCC1)O2
→ ·, ·, 106, i, ·, 0.93, ·
Cc1ccc(OCc2nnc(SCC(=O)Nc3nccs3)n2-c2ccccc2)cc1C
→ -0.8, 96, 96, i, 0, 1.1, -4
Cc1ccc(C(=O)NC2CC(C)(C)NC(C)(C)C2)cc1C
→ -0.6, ·, 103, i, ·, 0.7, -4
O=C(CCN1C(=O)COc2ccccc21)NCCN1CCN(c2ccccc2F)CC1
→ -1.9, ·, 100, i, ·, 0.94, 2
c1ccc(-c2cc3c(ccc4nonc43)nn2)cc1
→ -0.8, ·, 96, i, ·, 0.85, 6
CN(C)/C=N/c1cc(=O)[nH]c(=O)n1C
→ -0.5, 128, 166, i, 38, 0.72, -1
CCOc1ccc(NC(=O)C(CC(=O)O)Cc2ccccc2)cc1 (configuration not stated)
→ ·, ·, 97, i, ·, 1.1, 6
COc1ccc(C(=O)N/N=c2\oc3ccccc3cc2C(=O)NCc2ccccc2)cc1
→ -0.6, 82, 105, i, 7, 1, -7
CCOC(=O)N1CCN(C(=O)CSc2nnc(-c3ccc(Cl)s3)o2)CC1
→ -0.1, 79, ·, i, -262, 0.87, -9
CSc1nc(N)nc(C(C)C)n1
→ ·, ·, 97, i, ·, 1.1, ·
CCN=C1SC(C(=O)Nc2cccc(Br)c2)CC(=O)N1CC (configuration not stated)
→ -0.1, 79, 109, i, 0, 0.95, -5
Cc1ccccc1-n1c(SCC(=O)N(C)C2CCS(=O)(=O)C2)nnc1-c1ccncc1 (configuration not stated)
→ ·, 105, 109, i, -25, 0.92, -9
CCOC(=O)C(=CNc1cccc(N)n1)C(=O)OCC
→ 0.4, 139, 100, i, 24, 0.8, 4
Cc1[nH]nc2c1/C(=N\O)CC(C)(C)C2
→ -1.6, ·, 99, i, ·, 0.86, -5
